H5N1 antiviral = antiviral screen in MDCK cells, H5N1 avian flu. cytopathic effect, luminescence, 72 h; active compounds read high; no value below 0 was filed and about half of the inactive calls have no number; reference of the scale not given here. inhibition, % at 50 µM. actives 0.07% (n = 96,000); in the data active = inhibition above about 25%
The depositor's hits bear a star; i = inactive.

SMILES	H5N1 antiviral
O=C1CCc2cc(S(=O)(=O)N3CCCC3C(=O)N3CCN(c4ccccc4)CC3)ccc2N1 (stereo unspecified)	i
CC(=O)Nc1nnc(-c2ccc(Cl)s2)o1	3.4
COC(=O)c1ccccc1OCC(=O)N1CCN(c2ccc(F)cc2)CC1	0.1
O=C(CSc1cccc(C(F)(F)F)c1)Nc1ccc(Cl)cc1Cl	i
O=C(O)CCCCCNC(=O)CCn1cnc2ccccc2c1=O	0.3
COc1ccc(NC(=O)CSc2nnc(Cc3cccn3C)n2-c2ccc(C)cc2)cc1OC	i
COc1ccc(-c2nn(-c3ccccc3)cc2C2CC(c3cccs3)=NN2C(=O)CCCC(=O)O)cc1 (stereo unspecified)	1.8
CC(=O)N1CCN(CCN(CC2C(C)C=C(C)CC2C)C(C)=O)CC1 (stereo unspecified)	2.1
O=C(Nc1cc(=O)c2ccccc2o1)N1CCCCC1	i
O=C(c1ccco1)c1nnn(Cc2ccccc2)c1-c1ccccc1	i
CC1CN(C(=O)N(C)C)CCN1C(=O)N(C)C (stereo unspecified)	i
CCOC(=O)c1cnc(SC)nc1Nc1cccc(F)c1	i
CC1Cc2ccccc2N1C(=O)CSc1nnc(CNc2ccccc2)o1 (stereo unspecified)	i
CC1CN(C(=O)c2ccc(COCC(F)(F)F)o2)CC(C)O1 (stereo unspecified)	i
Cc1cccc(OC(=O)Cn2c(C(F)(F)F)nc3ccccc32)c1	i
CCCN(CCC)CCCNC(=O)c1cc2c(=O)n(C)c3ccccc3c2n1C	3.4
C=CCn1c(SCC#N)nc2c(c1=O)C(C)(C)Cc1ccccc1-2	2.9
CC1(O)N(Cc2ccccc2)C(=O)OC12CCCCC2 (stereo unspecified)	0.1
CCCCn1c(CN(C)Cc2ccccc2)nc2c1c(=O)n(C)c(=O)n2C	1.4
COCCCN1C(=O)c2ccc(C(=O)NCc3ccco3)cc2C1=O	0.5
Cc1ccc2cc(CCNC(=O)C(C)C)c(=O)[nH]c2c1C	0.3
COC(=O)c1ccc(-c2sc3nc(N4CCOCC4)c4c(c3c2N)CC(C)(C)OC4)o1	4.0
O=C(Cc1ccc(Br)cc1)Nc1ccccc1Sc1ccccc1	0.7
CC1(C)Cc2c(c(-c3ccco3)[nH]c(=O)c2C#N)CO1	1.3
O=C(NCC1CCCO1)c1ccc2c(=O)n(CC3CCCO3)c(=S)[nH]c2c1 (stereo unspecified)	i
Cc1ccc(C2CC(=O)C(C=NCCN3CCN(C(=O)Cc4ccccc4)CC3)=C(O)C2)cc1 (stereo unspecified)	0.1
OCC1OC(n2nnc3ccccc32)C(O)C(O)C1O (stereo unspecified)	0.2
Cc1ccc(OCC(=O)N2CCN(CC3CC4C=CC3C4)CC2)cc1 (stereo unspecified)	1.3
CCOC(=O)c1cccc(NC(=O)Cn2c(CC(=O)N3CCCC3)nc3ccccc32)c1	i
CC1(c2ccc(Cl)cc2)NC(=O)N(CC(=O)N2CCCC2)C1=O (stereo unspecified)	0.3
CCOC(=O)CC(=O)CSc1ccc2nnc(-c3cccc(F)c3)n2n1	3.0
O=C(Nc1nccs1)C1CC(=O)N(c2ccccc2Cl)C1 (stereo unspecified)	0.1
C=CCc1cc(Cl)ccc1OCCN(C)C	i
CCCCNC(=O)Cn1c2c(c(-c3ccccc3Cl)cc1=O)CCC2	i
Cc1ccc(-c2cc(N)n(-c3ccc(C)cc3)n2)cc1	i
CCN(CC)CCNC(=O)Cn1nc(-c2ccc(C)cc2)ccc1=O	0.9
O=C1CC(Cc2ccc(Cl)cc2)C(=O)N1c1ccccn1 (stereo unspecified)	i
Cc1cccc(C(=O)Nc2cc(C)ccc2NC(=O)COc2ccccc2)c1	i
CCCC1OC23CCCCC2C(C#N)(C(=N)O3)C1(C#N)C#N (stereo unspecified)	7.3
Cc1cccn2c(=O)c3cc(C(=O)NCCc4ccccc4)c(=N)n(CCCn4ccnc4)c3nc12	i
Cn1c(=O)[nH]c(=O)c2c1nc(SCCN1CCCCC1)n2CCCc1ccccc1	0.9
CC1CCCCN1C(=O)c1ccc(S(=O)(=O)N2CCCCC2C)cc1 (stereo unspecified)	1.3
CCOC(=O)c1cnn(-c2cc(Oc3ccccc3)ncn2)c1N	i
CCn1c(=N)n(CC(=O)c2ccc(OC)c(OC)c2)c2ccccc21	i
COCCC(=O)NC12CC3CC(CC(C3)C1)C2	i
COc1ccccc1N1CCN(C(c2cccs2)C(C)NS(=O)(=O)c2ccccc2)CC1 (stereo unspecified)	0.1
CC12CCC(C(=O)Nc3ccccc3Br)(C/C1=N\O)C2(C)C (stereo unspecified)	i
Cn1c(=O)c2c(nc(SCC(=O)c3cccs3)n2Cc2ccc(F)cc2)n(C)c1=O	i
CC(C)=C1C(=O)NN(c2ccc(F)c(Cl)c2)C1=O	0.1
Cc1nc2nc(Cc3ccccc3)[nH]n2c(=O)c1Cc1ccccc1	i
C=CCNc1nc(N2CCCC2)nc2ccccc12	i
c1n[nH]c(NCc2ccc3c(c2)OCO3)n1	i
COc1cc(-c2nc(S(=O)(=O)c3ccc(C)cc3)c(N(C)C)o2)cc(OC)c1OC	0.0
COc1ccc(NS(=O)(=O)c2ccc3c(c2)CCC(=O)N3)c(OC)c1	0.2
COc1ccc(S(=O)(=O)N(C)c2ccc(C(=O)N3CCOCC3)cc2)cc1OC	0.8
COc1ccc(-c2noc(C3CCCN(C(=O)CCc4ccccc4)C3)n2)cc1 (stereo unspecified)	i
CCOc1ccccc1OCCCOc1ccc(C)cc1Cl	2.6
COc1ccc(N(CC(=O)O)S(=O)(=O)c2cccnc2)cc1	0.5
CCC1=NN(C(=O)C(=O)NCCc2ccccc2)C(O)(C(F)(F)F)C1 (stereo unspecified)	i
CN(C)S(=O)(=O)c1ccc(S(=O)(=O)N(CC(=O)Nc2ccccc2)Cc2ccco2)cc1	i

(further entries)
SMILES	H5N1 antiviral
Cc1sc(NC(=O)C2CCCCC2C(=O)O)c(C(N)=O)c1-c1ccc(C(C)(C)C)cc1 (stereo unspecified)	i
O=S(=O)(c1ccc(Cl)cc1)N1CCC(N2CCCCCC2)CC1	i
CCOC(=O)Cn1cc(/C=N/NC(=O)c2ccc(C#N)cc2F)c2ccccc21	0.1
Cn1c(SCc2ccc(F)cc2)nnc1-c1ccccn1	0.7
O=C(NCc1cccnc1)c1sc2ccccc2c1Cl	i
Clc1cccc(-c2cc3nc4c(c(N5CCOCC5)n3n2)CCCC4)c1	25
COc1cc(OC)cc(C(=O)Nc2cccc(N3CCCC3)c2)c1	i
Cc1c(Cl)cnc(NC(=O)CSc2nnc3ccccn23)c1Cl	1.4
CCc1c(C)sc2nc(SCC(=O)Nc3cc(C)on3)n(CCOC)c(=O)c12	0.7
CCc1ccc(C(=O)COC(=O)CNC(=O)CNC(=O)Cc2ccccc2)cc1	i
O=c1oc2ccccc2c(N2CCCC2)c1CN1CCCC1	0.4
O=C(NCc1ccco1)c1cc2n(n1)C(C(F)(F)F)CC(c1ccc(Br)cc1)N2 (stereo unspecified)	i
COc1cc(C(=O)NCCC(=O)NCc2ccc3c(c2)OCO3)cc(OC)c1OC	i
Cc1nc2ncnn2c(C)c1CCC(=O)Oc1ccccc1	0.4
CSc1ccc(C2Nc3ccccc3-c3cc(C)nn32)cc1 (stereo unspecified)	i

Sorted by number of heavy atoms (low to high): part of the list above.
SMILES	H5N1 antiviral
CCOC(=O)c1cnn(-c2cc(Oc3ccccc3)ncn2)c1N	i
Cc1ccc(C2CC(=O)C(C=NCCN3CCN(C(=O)Cc4ccccc4)CC3)=C(O)C2)cc1 (stereo unspecified)	0.1
COc1ccc(-c2nn(-c3ccccc3)cc2C2CC(c3cccs3)=NN2C(=O)CCCC(=O)O)cc1 (stereo unspecified)	1.8

Other results:
SMILES	H5N1 antiviral
C=CCn1c(NCc2cc(C)ccc2O)nc2ccccc21	i
O=C(c1ccc(-c2ccccc2)cc1)N1CCN(Cc2ccccn2)CC1	i
CCOC(=O)Cc1c(C)nc2cc(-c3ccc(Cl)cc3)[nH]n2c1=O	0.5
COc1ccc2oc(=O)c(C(=O)N3CCc4ccccc43)cc2c1	0.5
O=C(NCCc1ccccc1)C1CCN(S(=O)(=O)c2cccc3nsnc23)CC1	i
Cc1ccccc1OCC(O)Cn1c(NCCN(C)C)nc2c1c(=O)n(C)c(=O)n2C (stereo unspecified)	i
CCOC(=O)C(Cc1ccccc1)C(=O)Nc1ccccc1C (stereo unspecified)	i
CCC(C)NC(=O)C1c2ccccc2C(=O)N1Cc1cc(OC)ccc1OC (stereo unspecified)	1.6
CCOc1cc(C)c(S(=O)(=O)Nc2ccc(F)cc2)cc1C	i
O=C(O)c1nc(N2CCCCC2)ncc1Cl	1.5
C#CCOC(=O)c1ccc(-n2cncn2)nc1	0.8
Cc1cccc(N(CC(=O)N2CCCC2)S(=O)(=O)c2ccccc2)c1	i
COC(=O)c1c(C)noc1-c1cc(C)on1	i
CC1Cn2c(nnc2-c2cccc(Cl)c2)S1 (stereo unspecified)	0.5
CSc1nsc(SCC(=O)N2CCCc3ccccc32)n1	i
COc1ccccc1C(=O)N1CCN=C1SC	i
CCOC(=O)c1c(-c2ccc(C)o2)csc1NC(=O)CN1CCN(CC)CC1	i
CCOc1ccc(CN2C(=O)CCC2(C)C(=O)NCc2cccnc2)cc1 (stereo unspecified)	1.0
COc1cc(-n2c(C)nc3cc(C(=O)NCc4ccco4)ccc32)cc(OC)c1OC	1.4
CCCCCCC1CC(CSc2ncn[nH]2)OC1=O (stereo unspecified)	0.8
CC1CCCCN1C(=O)Cn1cc(C(=O)c2ccco2)c2ccccc21 (stereo unspecified)	1.0
CCN(CC)C(=O)c1sc2nc(-c3cccs3)cc(-c3ccc(Cl)cc3)c2c1N	i
O=C(CN1C(=O)C2C3C=CC(C3)C2C1=O)NCC1COc2ccccc2O1 (stereo unspecified)	i
CC(C)c1cccc(C(C)C)c1OCCn1ccnc1	2.2
O=C(N/N=C/c1ccc(F)cc1)c1sccc1OCc1ccc(F)cc1	1.4
CCOC(=O)c1cc2n(c1N)-c1ccccc1C2=O	1.5
CCCc1nc(SCC(N)=O)[nH]c(=O)c1CC	i
COc1ccc(OC)c(NC(=O)CSc2nnc(N)s2)c1	0.2
COc1ccccc1NC(=O)[C@H](COCc1ccccc1)NC(=O)OC(C)(C)C	1.1
O=C(NC(Cc1ccccc1)C(=O)O)c1ccc(S(=O)(=O)N2CCOCC2)cc1 (stereo unspecified)	0.4
COc1ccc(N2CCN(C(=O)c3ccc(Oc4ccc(C(F)(F)F)cn4)cc3)CC2)cc1	1.2
Cc1nc(NC(=O)c2ccc(Br)s2)sc1C(=O)N(C)C	i
COCCCNC(=O)Cn1nnc(-c2ccc(NC(=O)c3ccc(F)cc3)cc2)n1	8.6
CCc1nc(N[C@H](C(=O)O)C(C)CC)c2oc3ccccc3c2n1 (stereo partly specified)	i
Cc1ccccc1NC(=O)Nc1cc(S(N)(=O)=O)ccc1C	0.3
CCCCNc1c2c(nc3c(-c4ccccc4)c(C)nn13)CCC2	0.5
O=C(NCc1cccnc1)c1noc2c1CCCC2	0.5
Nc1c(C(=O)NCc2ccc(F)cc2)c2nc3ccccc3nc2n1CCCN1CCOCC1	i
O=C(/C=C/c1ccccc1)N1CCN(c2ccccn2)CC1	0.6
C/C(=N\NC(=O)C1CCCN(S(=O)(=O)c2ccccc2)C1)c1ccccn1 (stereo unspecified)	1.7
COc1ccc2c(c1)c(CCN1C(=O)c3ccccc3C1=O)cn2C(=O)c1ccco1	i
CC1=C(C(=O)Nc2ccccc2)C(c2ccc(C)o2)N2C(=O)CSC2=N1 (stereo unspecified)	1.2
Cc1cnc(NC(=O)CN2C(=O)C3CC=CCC3C2=O)s1 (stereo unspecified)	0.1
COC(=O)CNc1nc(OC)nc(N(C)C)n1	i
Cc1nn(C)cc1CNC(=O)c1cc2n(n1)C(C(F)(F)F)CC(c1cccs1)N2 (stereo unspecified)	i
CCC(=O)Nc1ccc(NC(=O)c2ccc3c(c2)OCO3)cc1	i
CCOC(=O)c1[nH]c2ccc(OC)cc2c1NC(=O)c1ccc2c(c1)OCO2	i
CN(C1=NC(=O)C(CC(=O)Nc2ccc(Br)cc2)S1)c1ccc(O)cc1 (stereo unspecified)	2.6
O=c1[nH]c(=O)n(C2CCCCC2)c(O)c1C1NCCc2ccccc21 (stereo unspecified)	i
Cc1oc(-c2ccc(Cl)cc2)nc1CS(=O)CC(=O)NCCCN(C)C1CCCCC1 (stereo unspecified)	i
O=C(NC1CCCCCCC1)c1cnccn1	i
CCC(C)(C)NC(=O)CN(C(=O)CNS(=O)(=O)c1ccccc1)c1ccccc1	1.8
COc1ccc(OC)c(C(=O)c2ccc(C(=O)N3CCCCC3)cc2)c1	0.6
CCCCOc1ccc(-c2nnn(CC(=O)c3c[nH]c4ccccc34)n2)cc1	i
CC(=O)NN1C(=O)/C(=C/c2ccc(Br)o2)SC1=S	0.2

Of the compounds above, 14 contain a furan ring, fused or not:
SMILES	H5N1 antiviral
O=C(c1ccco1)c1nnn(Cc2ccccc2)c1-c1ccccc1	i
CC1CN(C(=O)c2ccc(COCC(F)(F)F)o2)CC(C)O1 (stereo unspecified)	i
COCCCN1C(=O)c2ccc(C(=O)NCc3ccco3)cc2C1=O	0.5
COC(=O)c1ccc(-c2sc3nc(N4CCOCC4)c4c(c3c2N)CC(C)(C)OC4)o1	4.0
CC1(C)Cc2c(c(-c3ccco3)[nH]c(=O)c2C#N)CO1	1.3
CN(C)S(=O)(=O)c1ccc(S(=O)(=O)N(CC(=O)Nc2ccccc2)Cc2ccco2)cc1	i
O=C(NCc1ccco1)c1cc2n(n1)C(C(F)(F)F)CC(c1ccc(Br)cc1)N2 (stereo unspecified)	i
CCOC(=O)c1c(-c2ccc(C)o2)csc1NC(=O)CN1CCN(CC)CC1	i
COc1cc(-n2c(C)nc3cc(C(=O)NCc4ccco4)ccc32)cc(OC)c1OC	1.4
CC1CCCCN1C(=O)Cn1cc(C(=O)c2ccco2)c2ccccc21 (stereo unspecified)	1.0
CCc1nc(N[C@H](C(=O)O)C(C)CC)c2oc3ccccc3c2n1 (stereo partly specified)	i
COc1ccc2c(c1)c(CCN1C(=O)c3ccccc3C1=O)cn2C(=O)c1ccco1	i
CC1=C(C(=O)Nc2ccccc2)C(c2ccc(C)o2)N2C(=O)CSC2=N1 (stereo unspecified)	1.2
CC(=O)NN1C(=O)/C(=C/c2ccc(Br)o2)SC1=S	0.2

High-throughput results deposited in PubChem BioAssay by SRMLSC.

The list is partial; the hit share may differ from the screen's.
